Proteasome disasm – blocks ATP-dependent breakdown of the yeast 26S proteasome; inhibition of disassembly, % (concentration not given with the values); 0.2% of 24,000 active; anti-FLAG beads, GFP-proteasome disassembly, flow cytometry;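 active = above 40%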;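 also: plate controls were ATP control with full disassembly for no effect and ATP-gamma-S intact proteasomes for full effect; higher percent means more bead fluorescence retained so stronger block of disassembly; stock transfer was 100 nL into about 10 µL; wells with too few beads may also be inconclusive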
VCAM-1 rise – enhancers of VCAM-1 display on endothelial cells, cell-based, plate reader, pooled HUVEC, TNFa stimulus (AID 455); HUVEC TNFa-induced VCAM-1 immunofluorescence, plate reader; numbers were filed only for top-ranked candidate wells; augmentation, % at 5 µM; 0.2% of 10,000 active;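 active = a compound raising TNF-alpha-driven VCAM-1 surface staining, with its hit status upheld on visual or statistical review; inactive = the rest, including hits rejected on review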;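 also: 0% = TNFa with vehicle and 100% = strongest image-checked hit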
Active calls of the source: *; i = inactive; x = no result given. Some of the compounds tested; rates above refer to the full screens.

SMILES	Proteasome disasm	VCAM-1 rise
C=CCNC(=O)c1cccc(Br)c1	-0.8	i
OCCn1c(CSc2nnc(-c3ccco3)n2-c2ccccc2)nc2ccc(Cl)cc21	0.0	i
Cc1cc(S(=O)(=O)NCCN(C)C)c(C)s1	-1.1	x
COc1cc(Cl)c(S(=O)(=O)N2CCN(Cc3ccc4c(c3)OCO4)CC2)cc1Cl	1.9	x
Cc1ccnc(NS(=O)(=O)c2ccc(NS(=O)(=O)c3cccs3)cc2)n1	2.4	x
CN(C)c1nc(N)nc(CSc2nnnn2-c2cccc3ccccc23)n1	2.9	i
Cc1cc(NC(=O)Cc2cn3ccsc3n2)n(-c2ccccc2)n1	-1.0	i
Cc1cc(C)c(C)c(S(=O)(=O)Nc2ccc(O)cc2)c1C	0.6	i
CCn1cc(C(=O)NCc2ccco2)c2cc(OC)c(OC)cc2c1=O	-1.4	x
O=C(NCc1nnc(SCC(=O)N2CCN(c3ccccc3)CC2)o1)c1ccco1	3.9	x
CCOC(=O)N1CCC(N(C(=O)Nc2ccccc2)C(C)CC)CC1 (configuration not stated)	1.1	x
O=C(O)c1cc(S(=O)(=O)Nc2ccc3oc(=O)sc3c2)ccc1O	4.4	x
CCOC(=O)c1nnn(-c2nonc2OC)c1-c1ccccc1	-0.5	x
COC(=O)Cn1c(CN2CCN(c3ccccc3F)CC2)nc2c1c(=O)n(C)c(=O)n2C	0.1	i
CC1CCC(C(=O)NC(C(=O)NCCCN2CCOCC2)C(C)C)CC1 (configuration not stated)	1.3	x
COc1ccc(OC)c(C2CC(=O)N3CN(c4cccc(Cl)c4)CSC3=C2C#N)c1 (configuration not stated)	0.0	x
COC(=O)C1=C(C)Nc2ncnn2C1c1ccc(C)o1 (configuration not stated)	-0.5	i
N#Cc1nc(COc2ccccc2)oc1NCCCn1ccnc1	-1.0	i
O=C1c2cccnc2C(O)N1Cc1ccccc1 (configuration not stated)	-0.3	x
CCCN1C(=O)c2cc(C(=O)NC3CCCC3)ccc2C1O (configuration not stated)	-2.0	x
CC(C)CNS(=O)(=O)c1ccccc1C(=O)N1CCCCC1	0.9	x
CN(C)CCNC(=O)c1ccc(COCC(F)(F)F)cc1	0.8	i
O=C(Nc1ccc(Cc2ccc(NC(=O)N3CCOCC3)cc2)cc1)N1CCOCC1	-0.2	i
COCC(=O)Nc1cc(OC)ccc1OC	0.8	i
CCOC(=O)N1CCN(c2c(NCc3cccs3)c(=O)c2=O)CC1	-0.1	x
O=c1[nH]cnc2c1C1(CCCC1)Cc1ccccc1-2	0.8	i
COC1(OC)N=C(N)C2(C#N)C(c3ccc(C)cc3)C12C#N (configuration not stated)	-1.4	x
O=C(NCCCN1CCCCC1)c1ccc2c(c1)NC(=O)C(N1CCCCC1)S2 (configuration not stated)	1.5	x
CCc1ccc(NC(=O)CSc2nc3cc(C(=O)OC)ccc3c(=O)n2Cc2ccco2)cc1	-4.1	x
Cc1nc(CNS(=O)(=O)c2cc(F)ccc2F)cs1	0.2	x
O=C(CSc1nnc(CNC(=O)c2c(F)cccc2Cl)o1)NCc1ccc2c(c1)OCO2	1.8	x
O=C(CSCc1cnn(-c2ccccc2)c1-n1cccc1)NCC1CCCO1 (configuration not stated)	2.1	24
COc1ccccc1N1CCN(Cc2cc(Br)c(O)c3ncccc23)CC1	1.7	x
CCOC(=O)C1=C(C)NC(SC(C)=O)=NC1c1ccc(OC(C)=O)c(OC)c1 (configuration not stated)	2.3	i
CN(C)C(=O)Cn1c(SCC(=O)NC2CCCCC2)nc2ccccc21	-0.5	i
CCOc1cc(C2NC(=O)N(C)C(C)=C2C(=O)OC)cc(Br)c1O (configuration not stated)	16	i
CCn1cc(C(=O)NCc2ccc3c(c2)OCO3)c(=O)c2cc(S(=O)(=O)N3CCOCC3)ccc21	1.0	x
CCOC(=O)c1[nH]c(C)c(C(=O)Nc2cc(OC)ccc2OC)c1C	-0.3	i
COc1ccc(CC(=O)N2CC(=O)N(CCc3ccccc3)C(=O)C2)cc1	-0.5	x
COc1ccc(-n2c(Cc3cccn3C)nnc2SCC(=O)Nc2nc(C)cs2)cc1	0.5	x
COc1ccc(CC(=O)OCc2nnc(C3COc4ccccc4O3)o2)cc1OC (configuration not stated)	-1.2	i
Nc1nc(CN2CCN(Cc3ccc4c(c3)OCO4)CC2)nc(Nc2ccccc2)n1	0.2	i
CC(C)CNC(=O)c1cc(-c2ccco2)on1	0.0	x
Cc1cc(C)cc(NS(=O)(=O)c2ccc3[nH]c(=O)[nH]c3c2)c1	-3.4	i
COc1ccccc1N(CN1CCCC1=O)C(=O)c1c(F)cccc1F	0.6	x
CCn1cnc2sc(C(=O)N3CCN(c4ccc(OC)cc4)CC3)c(C)c2c1=O	0.8	x
COc1ccc(OC)c(NC(=O)CCN2CCC(C)CC2)c1	-1.4	i
CCOc1cc2[nH]c(=O)n(CC3CCC(C(=O)NC(C)CC)CC3)c(=O)c2cc1OCC (configuration not stated)	1.7	x
CCOC(=O)N1CCC(NC(=O)C2CCCN2C(=O)OCc2ccccc2)CC1 (configuration not stated)	0.3	i
CCOC(=O)N1CCC(Nc2c(-c3ccc(C)cc3)c(=O)c2=O)CC1	-0.4	i
CCOC(=O)N1CCN(S(=O)(=O)c2c(C)[nH]c(=O)[nH]c2=O)CC1	0.8	x
CCn1c(=O)cc(OCC(=O)Nc2ccccc2C#N)c2ccccc21	0.9	x
Cc1ccc(-c2ccc(/C=N/n3cnnc3)o2)cc1Cl	0.1	i
CSCCC1C(C#N)=C(N)Oc2n[nH]c(-c3cccs3)c21 (configuration not stated)	0.2	x
c1ccc2c(c1)Cc1cc(CN3CCOCC3)ccc1-2	0.0	i
CC(=O)C(C(C)=O)C(NC(=O)c1cccnc1)(C(F)(F)F)C(F)(F)F	1.5	x
O=C(CCCCn1c(=O)c2ccccc2n(CC(=O)Nc2ccc(F)cc2)c1=O)NCc1ccco1	0.3	x
Cc1nn(C)c(C)c1S(=O)(=O)N(CC(=O)NCCN1CCOCC1)c1ccc(C(C)C)cc1	0.6	x
O=C(Cn1cnc2c(cnn2-c2ccc(F)cc2)c1=O)N1CCN(c2ccccc2)CC1	-0.8	i
COc1ccc(S(=O)(=O)N2CCCN(CCC(=O)Nc3cccc(C(F)(F)F)c3)CC2)cc1	0.2	x

15 entries already listed, arranged by molecular weight, smallest number first.
SMILES	Proteasome disasm	VCAM-1 rise
CC(C)CNC(=O)c1cc(-c2ccco2)on1	0.0	x
Cc1ccc(-c2ccc(/C=N/n3cnnc3)o2)cc1Cl	0.1	i
COc1ccc(OC)c(NC(=O)CCN2CCC(C)CC2)c1	-1.4	i
Cc1cc(C)cc(NS(=O)(=O)c2ccc3[nH]c(=O)[nH]c3c2)c1	-3.4	i
CSCCC1C(C#N)=C(N)Oc2n[nH]c(-c3cccs3)c21 (configuration not stated)	0.2	x
CCOC(=O)N1CCC(Nc2c(-c3ccc(C)cc3)c(=O)c2=O)CC1	-0.4	i
COc1ccccc1N(CN1CCCC1=O)C(=O)c1c(F)cccc1F	0.6	x
CC(=O)C(C(C)=O)C(NC(=O)c1cccnc1)(C(F)(F)F)C(F)(F)F	1.5	x
CCOC(=O)N1CCC(NC(=O)C2CCCN2C(=O)OCc2ccccc2)CC1 (configuration not stated)	0.3	i
CCn1cnc2sc(C(=O)N3CCN(c4ccc(OC)cc4)CC3)c(C)c2c1=O	0.8	x
O=C(Cn1cnc2c(cnn2-c2ccc(F)cc2)c1=O)N1CCN(c2ccccc2)CC1	-0.8	i
CCOc1cc2[nH]c(=O)n(CC3CCC(C(=O)NC(C)CC)CC3)c(=O)c2cc1OCC (configuration not stated)	1.7	x
Cc1nn(C)c(C)c1S(=O)(=O)N(CC(=O)NCCN1CCOCC1)c1ccc(C(C)C)cc1	0.6	x
COc1ccc(S(=O)(=O)N2CCCN(CCC(=O)Nc3cccc(C(F)(F)F)c3)CC2)cc1	0.2	x
O=C(CCCCn1c(=O)c2ccccc2n(CC(=O)Nc2ccc(F)cc2)c1=O)NCc1ccco1	0.3	x

Later entries:
SMILES	Proteasome disasm	VCAM-1 rise
CN1C(=S)SC(C)(NO)C1(C)C (configuration not stated)	-0.6	i
COCCCNC(=O)c1ccc2c(c1)ncn2-c1ccccc1OC	-1.2	x
CCn1ccnc1C(O)c1cccc(OC)c1OC (configuration not stated)	-0.6	x
CCCCNC(=O)CCCn1c(=O)c2ccccc2n(CC(=O)NCCC2=CCCCC2)c1=O	-1.2	x
CCOC(=O)CSC1=C(C#N)C(c2ccc(C)o2)CC(=O)N1 (configuration not stated)	0.1	i
CC(=O)N1CCc2cc(S(=O)(=O)NCCC(=O)NCCc3ccc(C)cc3)ccc21	2.6	x
Cc1onc(-c2ccccc2)c1C(=O)Nc1nnc(N2CCCCCC2)s1	-1.0	x
CCOC(=O)C1CCCN(C(=O)c2sc3nc(-c4ccc(F)cc4)cn3c2C)C1 (configuration not stated)	-0.1	x
CCOc1ccccc1C1CC(=O)Nc2cc(OC)c(OC)c(OC)c21 (configuration not stated)	-1.4	x
Cc1cc(-c2ccccc2)c2nncn2n1	0.2	i
CCOC(=O)C1=C(C)OC(N)=C(C#N)C1c1ccoc1 (configuration not stated)	0.1	i
Cc1ccc(CNC(=O)C2CC(=O)N(C3CCCCCCC3)C2)cc1 (configuration not stated)	-0.7	x
COc1cccc(CNC(=O)C2CCCN(c3nc4ccccc4o3)C2)c1 (configuration not stated)	-1.9	x
COc1ccccc1C(=O)N1CCNC(=O)C1CC(=O)Nc1ccc(Cl)cc1 (configuration not stated)	1.9	i
O=C(Nc1cccc2ncccc12)c1ccc2c(c1)OCCO2	0.4	81*
CC(=O)N1c2ccccc2N(Cc2ccc(C)cc2C)C(=O)C1(C)C	0.1	x
CCOc1ccc(-n2c(SCC)nc3c(c2=O)SCC3)cc1	1.2	x
CCOC(=O)Nc1ccc2c(c1)N(C(=O)CN(CC)CC)c1ccccc1C=C2	-1.9	i
COc1ccc(CCNC(=O)CS(=O)Cc2nc(-c3cccs3)oc2C)cc1OC (configuration not stated)	-0.7	x
CCCCN(C)CCCNC(=O)CC1Oc2ccccc2NC1=O (configuration not stated)	-0.4	i
CCOc1nc(-c2ccccc2)ccc1-c1noc(-c2ccc(OC)c(OC)c2)n1	1.5	i
CCOC(=O)Cc1ccc(NS(=O)(=O)c2ccc(SC)cc2)cc1	0.8	i
COc1ccccc1-n1cnnc1SCC(=O)c1ccc[nH]1	4.0	i
CCOC(=O)C1CCCn2c1nc1sc3c(c1c2=O)CCCC3 (configuration not stated)	-0.5	i
CCn1cc(C(=O)NCC2CCCO2)c(=O)c2cc(S(=O)(=O)N(C)C3CCCCC3)ccc21 (configuration not stated)	0.7	i
CCCCN1C(=O)C(O)(CC(=O)c2ccco2)c2cc(Br)ccc21 (configuration not stated)	-2.3	x
CCOC(=O)c1ccccc1NC(=O)COC(=O)C1=COCCO1	-0.3	i
CC(NC(=O)CSc1n[nH]c(=O)n1C1CC1)C12CC3CC(CC(C3)C1)C2 (configuration not stated)	0.2	i
CCOC(=O)C1CCN(S(=O)(=O)c2nc3nc(C)cc(C)n3n2)CC1	-1.5	x
CCc1cccc2c3c([nH]c12)C(CC)(CC(=O)O)OCC3 (configuration not stated)	0.0	i
CCC(C)NC(=O)c1cnn2c(C)c3c(nc12)CCCC3 (configuration not stated)	0.6	x
COc1ccc(N2CCN(CCNC(=O)C3CCN(S(=O)(=O)c4cccs4)CC3)CC2)cc1	-0.4	x
COc1ccc(NC(=O)CSc2nc(C)cc(C(F)(F)F)n2)cc1	1.8	i
O=c1c2cc(N3CCOCC3)ccc2[nH]c(=S)n1CC1CCCO1 (configuration not stated)	1.0	x
CC(=O)O[C@H]1CSC[C@H]1NC(=O)c1ccccc1	-0.4	i
O=C(OCC(=O)N1CCC(Cc2ccccc2)CC1)c1ccc[nH]c1=O	-0.1	i
Cc1csc(NC(=O)C2CCCN(S(=O)(=O)c3cccnc3)C2)n1 (configuration not stated)	-0.1	x
Cc1ccc2nc(NC(=O)C3CCCN(S(=O)(=O)c4cccc5nsnc45)C3)sc2c1 (configuration not stated)	151*	x
CN(C1CCCCC1)S(=O)(=O)c1ccc(NC(=O)c2ccco2)cc1	-1.3	i
CN1C(=O)NC(c2cccc(O)c2)C(C(=O)c2cccs2)C1(O)C(F)(F)F (configuration not stated)	-2.7	x
CC(C)Cn1c(CN(Cc2ccccc2)Cc2ccccc2)nc2c1c(=O)n(C)c(=O)n2C	0.1	i
CC1N=C2c3ccccc3N=C(SCc3cc(=O)n4ccccc4n3)N2C1=O (configuration not stated)	0.0	x
FC(F)(F)c1nc2ncc(Cl)cc2[nH]1	3.2	x
CCOC(=O)C1=C(N)OC2=C(C(=O)CC(C)(C)C2)C1c1ccoc1 (configuration not stated)	-0.3	i
Cc1ccccc1CSCC(=O)c1c(N)n(C)c(=O)n(C)c1=O	0.5	i
CCOC(=O)c1ccc(N2CSC3=C(C#N)C(c4ccc(OC)cc4OC)CC(=O)N3C2)cc1 (configuration not stated)	0.8	x
CC(=O)N=c1sc2c3ccccc3ccc2n1C	0.3	x
COc1ccccc1NC(=O)C1=C(C)Nc2ncnn2C1c1ccc(C)o1 (configuration not stated)	-0.8	i
CCOc1ccc2[nH]c(=O)c(CN(Cc3ccccc3)C(=O)N3CCCC3)cc2c1	-0.7	i
CCOC1(OCC)N=C(N)C2(C#N)C(c3cccc(OC)c3OC)C12C#N (configuration not stated)	-0.1	x
CCOc1ccc(NC(=O)CCNc2c(N3CCCC3)c(=O)c2=O)cc1	-3.0	x
O=C(O)C1CC(=O)N(Cc2ccccc2)C1 (configuration not stated)	-1.5	i
CCn1c(C)nc2cc(C(=O)OCCC(F)(F)F)ccc21	-2.2	i
Cc1ccc(NC(=O)CSc2nc3ccccc3c(=O)n2CCCC(=O)N2CCCC2)cc1	-0.7	x
C=CCN1C(=O)C2(c3ccccc31)C1CCCC=C1C(C#N)=C(N)C2(C#N)C#N (configuration not stated)	0.7	i

Compound activity (PubChem BioAssay)
